Source: PubChem BioAssay (Broad Institute)
DUX4 inh – inhibitors of DUX4-driven ZSCAN4 reporter expression, primary screen, 293T cells, Gaussia and Italica luciferase; 37,000 compounds, 0.8% hits; activity change, negative = inhibition, % (test concentration not listed); AID 1224904, 2016; 293T-iDUX4 ZSCAN4-Gaussia luciferase reporter, 24 h; hits give low values;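 active = -10% or lower and over 25 points stronger than a control reporter; inconclusive = -10% or lower with a smaller gap; inactive = above -10%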;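 also: 0% = median of neutral control wells and -100% = median of positive control wells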
DUX4 inh difference – further read-out of DUX4 inh, marked with its call; Gaussia minus Italica difference, %; measured here: selective DUX4 reporter inhibition;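 worked out from the two reporters; negative = selective loss of the DUX4 reporter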
DUX4 inh control – also measured in DUX4 inh; calls as there; activity change, negative = inhibition, %; measured here: Italica tet-on control reporter;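 0 = neutral control and -100 = positive control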
An asterisk follows results filed as active; ? = inconclusive; . = no result given; & = joins results of further samples. These rows are one share of the data, so the mix of outcomes need not match the whole.

SMILES	DUX4 inh	DUX4 inh difference	DUX4 inh control
C[C@@H]1CN([C@H](C)CO)S(=O)(=O)c2ccc(C#Cc3ccccc3F)cc2O[C@@H]1CN(C)C(=O)c1ccc2c(c1)OCO2	2.5	1.2	1.2
COc1ccc(NC(=O)N(C)C[C@H]2Oc3ccc(NC(=O)CCN4CCOCC4)cc3C(=O)N([C@@H](C)CO)C[C@@H]2C)cc1	3.0	4.2	-1.2
COc1ccc2c3c(n(C)c2c1)[C@H](CO)N(C(C)=O)CC31CCN(S(=O)(=O)c2ccccc2)CC1	4.2	12.3	-8.1
COc1ccc(-c2ccc(C3[C@H]4CNC[C@@H]3N4C(=O)Nc3ccc(F)cc3)cc2)cc1 (some centres not stated)	16.3&6.4	5.2&5.5	11.2&0.8
COc1ccc2c3c([nH]c2c1)[C@H](CO)N(C(=O)Nc1ccc(F)cc1)CC31CCN(C(=O)Cc2ccncc2)CC1	-6.8	-2.0	-4.8
COc1ccccc1-c1ccc2n(c1=O)C[C@@H]1[C@@H](CO)[C@H](C(=O)N[C@@H](C)c3ccccc3)[C@H]2N1C	7.9	7.6	0.3
CN(C)CCCNC(=O)[C@H]1[C@H](CO)[C@H]2Cn3c(ccc(-c4ccccc4)c3=O)[C@@H]1N2C(=O)CC1CC1	0.8	-4.3	5.2
CN1[C@H](CO)[C@@H]2c3ccccc3N(C(=O)Nc3ccccc3F)C[C@@H]21	-2.2	1.7	-3.9
O=C(C[C@H]1C[C@@H]2c3cc(NC(=O)NC4CCCC4)ccc3O[C@@H]2[C@H](CO)O1)NCc1ccccc1F	1.7	2.0	-0.3
Cc1ccc(S(=O)(=O)N2CC[C@@H]3[C@@H](CO)N(C)c4ccc(C#Cc5cccnc5)cc4[C@@H]32)cc1	?	.	.
COc1ccc2c3c([nH]c2c1)[C@H](CO)N(S(C)(=O)=O)CC31CCN(C(=O)c2cccnc2)CC1	15.5	2.3	13.2
CC1C=NC(S(=O)(=O)N2CC[C@@H]3[C@@H](CO)N(C)c4ccc(-c5ccccc5F)cc4[C@@H]32)=N1 (some centres not stated)	23.8	18.9	4.9

Profiles from above. Order of values: DUX4 inh	DUX4 inh difference	DUX4 inh control
Profile of `COc1ccccc1-c1ccc2n(c1=O)C[C@@H]1[C@@H](CO)[C@H](C(=O)N[C@@H](C)c3ccccc3)[C@H]2N1C` → 7.9	7.6	0.3
Profile of `COc1ccc(NC(=O)N(C)C[C@H]2Oc3ccc(NC(=O)CCN4CCOCC4)cc3C(=O)N([C@@H](C)CO)C[C@@H]2C)cc1` → 3.0	4.2	-1.2
Profile of `COc1ccc2c3c([nH]c2c1)[C@H](CO)N(C(=O)Nc1ccc(F)cc1)CC31CCN(C(=O)Cc2ccncc2)CC1` → -6.8	-2.0	-4.8
Profile of `O=C(C[C@H]1C[C@@H]2c3cc(NC(=O)NC4CCCC4)ccc3O[C@@H]2[C@H](CO)O1)NCc1ccccc1F` → 1.7	2.0	-0.3
Profile of `CN1[C@H](CO)[C@@H]2c3ccccc3N(C(=O)Nc3ccccc3F)C[C@@H]21` → -2.2	1.7	-3.9

The listing continues:
SMILES	DUX4 inh	DUX4 inh difference	DUX4 inh control
COc1cccc(CN2[C@@H](CO)[C@@H]3c4ccccc4N(C(=O)CC(F)(F)F)C[C@@H]32)c1	0.6	-0.7	1.3
COCc1cn(CC[C@H]2CC[C@H](NC(=O)c3ccc(F)cc3)[C@H](CO)O2)nn1	0.6	6.2	-5.6
O=C(c1ccccc1)N1CC[C@@H]2[C@H]1c1cc(-c3ccc(F)cc3)ccc1N[C@@H]2CO	9.9	4.4	5.5
O=C(N[C@@H]1CC[C@H](CCNS(=O)(=O)c2ccc(F)cc2)O[C@H]1CO)C1CCC1	-0.6	-7.1	6.5
O=C(C[C@@H]1CC[C@H]2[C@@H](COC[C@H](O)CN2C(=O)c2cnccn2)O1)NCc1ccc(Cl)cc1	10.6	8.5	2.1
O=C(Cc1ccccc1)N1C[C@@H]2[C@H](c3ccccc31)[C@H](CO)N2C(=O)C1CCOCC1	1.2	1.5	-0.3
COc1ccc(NC(=O)N2C[C@@H]3[C@H](c4ccccc42)[C@@H](CO)N3C(=O)C2CC2)cc1	1.5	0.2	1.3
CN1C(=O)c2cc(NC(=O)c3cccs3)ccc2OC[C@@H]2O[C@H](CC(=O)O)CC[C@H]21	-0.7	1.3	-1.9
Cc1ccccc1S(=O)(=O)N1C[C@@H](O)COC[C@H]2O[C@@H](CC(=O)NCc3ccccc3Cl)CC[C@@H]21	-0.2	-2.4	2.2
CO[C@H]1CN(C)C(=O)c2cc(NS(C)(=O)=O)ccc2OC[C@@H](C)N(C(=O)CC2CC2)C[C@H]1C	4.2	3.0	1.2
C[C@@H]1CN([C@@H](C)CO)C(=O)c2cc(-c3cccc(F)c3)cnc2O[C@@H]1CN(C)Cc1ccccn1	-2.9	-3.5	0.6
COC(=O)C[C@@H]1C[C@H]2c3cc(NC(=O)CN(C)C)ccc3O[C@H]2[C@H](CO)O1	5.1	7.2	-2.1
Cc1ccc(S(=O)(=O)N2CC[C@@H]3[C@@H](CO)Nc4ccc(C#Cc5ccccc5F)cc4[C@@H]32)cc1	8.5	-0.7	9.2
CN1C(=O)c2cc(NC(=O)c3cccc(C(F)(F)F)c3)ccc2OC[C@@H]2O[C@H](CC(=O)O)CC[C@@H]21	-0.2	-3.7	3.5
Cc1ccc(-c2ccc(C3[C@H]4CNC[C@@H]3N4Cc3ccc(F)cc3)cc2)cc1 (some centres not stated)	12.9	9.5	3.4
C/C=C/c1ccc([C@@H]2[C@@H](CO)N(C(=O)CC)[C@H]2CNC(=O)c2ccncc2)cc1	-1.8	-5.6	3.8
O=C(Nc1cccc(Cl)c1)N[C@@H]1CC[C@H](CCn2cc(Cc3ccccc3)nn2)O[C@@H]1CO	-7.0	2.8	-9.8
Cc1ccc(S(=O)(=O)N(C)C[C@@H]2Oc3ccc(NC(=O)CCCN(C)C)cc3C(=O)N([C@H](C)CO)C[C@H]2C)cc1	2.0	1.8	0.2
COc1cccc(S(=O)(=O)N[C@H]2CC[C@H](CC(=O)NC3Cc4ccccc4C3)O[C@@H]2CO)c1	-7.3	-2.2	-5.1
CC(C)NC(=O)N1C[C@@H]2[C@H](c3ccccc31)[C@@H](CO)N2Cc1ccc(Cl)cc1	2.5	2.6	-0.1
O=C(C[C@@H]1C[C@@H]2c3cc(NC(=O)Nc4ccc(C(F)(F)F)cc4)ccc3O[C@@H]2[C@H](CO)O1)NCc1ccccn1	4.2	-0.7	4.9
O=C(C[C@@H]1C[C@H]2c3cc(NS(=O)(=O)c4ccc(F)cc4)ccc3O[C@H]2[C@@H](CO)O1)NCc1cccc(F)c1	2.2	8.8	-6.6
COCC(=O)N1C[C@@H](C)[C@H](OC)CN(C)C(=O)c2ccc(NC(=O)Nc3cccc(F)c3)cc2OC[C@@H]1C	-2.4	-5.3	2.9
COc1ccccc1NC(=O)N(C)C[C@H]1OCc2cnnn2CCCC(=O)N([C@H](C)CO)C[C@@H]1C	2.0	2.0	-0.1
Cc1ccc(S(=O)(=O)Nc2ccc3c(c2)C(=O)N([C@@H](C)CO)C[C@H](C)[C@H](CN(C)Cc2ccc(C(F)(F)F)cc2)O3)cc1	0.0	-0.4	0.4
CO[C@H]1CN(C)C(=O)c2cc(NC(=O)c3nc4ccccc4s3)ccc2OC[C@@H](C)NC[C@H]1C	-3.4	-0.9	-2.5
C[C@@H]1CCCCO[C@@H](CN(C)C(=O)Cc2ccccc2)[C@H](C)CN([C@@H](C)CO)C(=O)c2cc(NC(=O)c3ccncc3)ccc2O1	0.9	3.3	-2.4
C[C@H](CO)N1C[C@H](C)[C@H](CN(C)C(=O)OCc2ccccc2)OCc2cn(nn2)CCCC1=O	-2.2	-0.6	-1.6
Cc1ccc(NC(=O)Nc2ccc3c(c2)C(=O)N(C)[C@H]2CC[C@H](CC(=O)NCC(F)(F)F)O[C@H]2CO3)cc1	-2.0	1.7	-3.7
CN(C)C(=O)c1ccc(-c2ccc([C@H]3[C@H](CO)N4C(=O)CN(C(=O)C5CC5)C[C@@H]34)cc2)cc1	19.9	6.1	13.8
O=C(C[C@H]1CC[C@@H]2[C@H](COC[C@@H](O)CN2C(=O)Nc2ccc(F)cc2)O1)NCc1ccncn1	15.1	11.1	4.0
COc1ccc2c3c([nH]c2c1)[C@@H](CO)N(C(=O)c1cccc(F)c1)CC31CN(C(=O)CC2CC2)C1	7.3	7.9	-0.7
O=C(C1CCOCC1)N1CC2(C1)[C@H](c1ccccc1)[C@@H](CO)N2Cc1ccccc1F	-3.4	-7.0	3.6
COc1ccc(NC(=O)N2CC3(C2)CN(C(=O)C2CCC2)[C@@H](CO)c2c3c3ccc(OC)cc3n2C)cc1	0.1	-10.6	10.7
Cc1noc(C)c1NC(=O)N[C@H]1C=C[C@H](CC(=O)N2CCCCC2)O[C@H]1CO	10.0	5.3	4.7
COc1ccc(-c2ccc3n(c2=O)C[C@@H]2[C@@H](CO)[C@H](C(=O)N(C)C)[C@H]3N2C(=O)c2cnccn2)cc1	-7.0	-2.6	-4.5
O=C(C[C@@H]1CC[C@H](NS(=O)(=O)c2ccc(F)cc2)[C@H](CO)O1)N1CCN(c2ccccc2)CC1	6.7	3.1	3.5
O=C(CN1CCOCC1)N[C@@H]1CC[C@H](CCNS(=O)(=O)c2ccccc2F)O[C@H]1CO	3.9	0.1	3.8
COc1ccc(-c2ccc([C@@H]3[C@@H](C#N)N(C(=O)NC(C)C)[C@H]3CO)cc2)cc1	1.2	3.5	-2.3
COc1ccc2c3c([nH]c2c1)[C@H](CO)N(Cc1ccc2c(c1)OCO2)CC31CCN(C(=O)Nc2c(C)noc2C)CC1	?	.	.
COc1ccccc1S(=O)(=O)N1CC[C@H]2[C@H](CO)Nc3ccc(-c4ccc(F)cc4)cc3[C@H]21	?	.	.
C[C@H](CO)N1C[C@H](C)[C@@H](CN(C)Cc2ccc3c(c2)OCO3)OCCCC[C@H](C)Oc2ccc(NC(=O)CCC(F)(F)F)cc2C1=O	9.3	7.5	1.7
O=C(NC[C@@H]1[C@H](c2ccccc2)[C@H](CO)N1Cc1ccccn1)C1CCCC1	-0.5	-2.0	1.4
C[C@@H](O)C#Cc1ccc([C@H]2[C@H]3CN(C(=O)Nc4ccccc4)CCCCN3[C@H]2CO)cc1	15.6	7.7	7.9
COCC(=O)Nc1ccc2c(c1)C(=O)N(C)C[C@H](OC)[C@H](C)CN(CCc1ccccc1)[C@@H](C)CO2	-9.8	-10.0	0.2
CN(C)C(=O)[C@H]1[C@H](CO)[C@H]2Cn3c(ccc(-c4ccccc4)c3=O)[C@@H]1N2CCc1ccccc1	-5.2	-13.5	8.2
CC(C)NC(=O)N(C)C[C@@H]1OCc2ccccc2-c2ccccc2C(=O)N([C@H](C)CO)C[C@H]1C	14.2	5.2	9.0
CCNC(=O)[C@@H]1[C@@H](CO)[C@@H]2Cn3c(ccc(-c4cccc(F)c4)c3=O)[C@H]1N2C(=O)c1cnccn1	6.0	-1.3	7.3

2 entries drawn at random from those above, as already listed:
SMILES	DUX4 inh	DUX4 inh difference	DUX4 inh control
CC(C)NC(=O)N(C)C[C@@H]1OCc2ccccc2-c2ccccc2C(=O)N([C@H](C)CO)C[C@H]1C	14.2	5.2	9.0
O=C(CN1CCOCC1)N[C@@H]1CC[C@H](CCNS(=O)(=O)c2ccccc2F)O[C@H]1CO	3.9	0.1	3.8

Next part:
SMILES	DUX4 inh	DUX4 inh difference	DUX4 inh control
COCC(=O)Nc1ccc2c(c1)[C@H]1C[C@@H](CC(=O)NCc3ccccc3F)O[C@@H](CO)[C@H]1O2	0.7	-3.4	4.1
O=C(CC1CC1)N1[C@H](CO)[C@@H]2c3ccccc3N(S(=O)(=O)c3ccccc3)C[C@@H]21	1.7	-5.2	6.9
O=C(C[C@H]1CC[C@H]2[C@@H](COC[C@@H](O)CN2C(=O)c2ccc(F)cc2)O1)Nc1nccs1	13.8	9.7	4.1
CCCNC(=O)N1C[C@H](O)COC[C@H]2O[C@H](CC(=O)NCCCN3CCOCC3)CC[C@@H]21	4.2	4.4	-0.2
N#C[C@H]1[C@H](c2ccccc2)[C@H](CO)N1S(=O)(=O)c1ccc(F)cc1	-1.4	-6.7	5.3
CCCN1[C@H](CO)[C@H](c2ccc(C3=CCCC3)cc2)[C@H]1CN(C(C)=O)C1CCCC1	0.5	-1.1	1.6
CCCC#Cc1ccc([C@H]2[C@@H](CO)N3C(=O)CN(C(=O)c4cccc(F)c4)C[C@@H]23)cc1	-2.1	-8.6	6.6
COc1cccc(CN2CC3(C2)CN(C(=O)C2CC2)[C@H](CO)c2[nH]c4cc(OC)ccc4c23)c1	?	.	.
COc1cccc(-c2ccc3c(c2)[C@H]2[C@H](CCN2C(=O)c2ccccc2F)[C@@H](CO)N3C)c1	?	.	.
O=C(Nc1ccccc1)[C@H]1[C@H](CO)[C@H]2Cn3c(cccc3=O)[C@H]2N1C(=O)C1CCC1	12.2	54.5	-42.3
COc1ccc(C(=O)N2C[C@@H]3[C@H](c4ccccc42)[C@@H](CO)N3Cc2ccc(Cl)cc2)cc1	-1.5	3.4	-5.0
COc1cccc(NC(=O)N2C[C@H](O)COC[C@H]3O[C@@H](CC(=O)N(C)C)CC[C@@H]32)c1	5.6	0.6	5.0
CC(C)c1cn(CC[C@@H]2CC[C@H](NC(=O)c3cccc(F)c3)[C@@H](CO)O2)nn1	1.8	5.0	-3.2
COc1ccc(NC(=O)N(C)C[C@@H]2Oc3ncc(C#C[C@H](C)O)cc3C(=O)N([C@H](C)CO)C[C@@H]2C)cc1	-4.1	-4.3	0.2
